Rango-impB inh: Rango-importin beta binding inhibition; 340,000 compounds, 0.031% hits; Potency, µM (top dose mostly 92.2 µM), for the others: top-dose inhibition of complex formation; Q14974; Rango CFP/YFP FRET sensor + importin beta, 45 min; active = rising FRET ratio curve, often small or poorly fitted; inconclusive = mostly compound fluorescence or quenching in the first reads; inactive = flat curves in all reads;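 note: potency is the fitted concentration of half-maximal effect; 0% = DMSO wells and 100% = buffer wells lacking importin beta; nearly all actives have a fitted effect of over 15% in size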
Target sequence (Q14974 whole entry, looked up): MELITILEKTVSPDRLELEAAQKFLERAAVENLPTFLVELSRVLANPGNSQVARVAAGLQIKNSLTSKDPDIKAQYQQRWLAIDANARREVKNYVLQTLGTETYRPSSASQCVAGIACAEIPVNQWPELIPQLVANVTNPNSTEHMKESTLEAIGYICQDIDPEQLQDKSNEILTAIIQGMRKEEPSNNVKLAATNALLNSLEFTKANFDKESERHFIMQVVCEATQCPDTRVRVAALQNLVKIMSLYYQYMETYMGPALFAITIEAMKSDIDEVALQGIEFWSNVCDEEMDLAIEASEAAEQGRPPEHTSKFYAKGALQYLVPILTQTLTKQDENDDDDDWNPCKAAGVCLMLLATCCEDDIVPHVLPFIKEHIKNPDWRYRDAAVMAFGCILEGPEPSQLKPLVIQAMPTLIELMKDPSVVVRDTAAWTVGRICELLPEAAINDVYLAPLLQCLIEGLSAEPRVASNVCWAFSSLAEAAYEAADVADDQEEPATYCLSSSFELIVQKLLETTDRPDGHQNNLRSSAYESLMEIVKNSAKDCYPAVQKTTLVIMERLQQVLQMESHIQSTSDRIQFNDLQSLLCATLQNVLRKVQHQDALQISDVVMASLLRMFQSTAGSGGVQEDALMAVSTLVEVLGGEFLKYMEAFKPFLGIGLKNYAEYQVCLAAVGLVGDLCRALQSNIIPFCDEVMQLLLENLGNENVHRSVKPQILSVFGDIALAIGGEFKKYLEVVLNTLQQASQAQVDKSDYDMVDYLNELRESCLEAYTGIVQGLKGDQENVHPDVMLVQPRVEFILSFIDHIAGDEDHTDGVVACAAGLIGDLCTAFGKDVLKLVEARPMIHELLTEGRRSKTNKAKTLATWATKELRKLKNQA
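Inhibition scored from the CFP 486 nm/YFP 530 nm FRET ratio 45 min after adding 0.125 microM importin beta to 50 nM Rango biosensor preincubated 5 min with compound (room temperature, PBS with DTT, Tween-20, BSA). No-importin wells as positive control.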
GLA inh pH 4.5: blocks human alpha-galactosidase A at pH 4.5. purified enzyme, 4-MU-alpha-Gal fluorescence, pH 4.5. AID 1467. activity change, negative = inhibition, % at 105 µM. 230,000 tested, under 10 active. P06280; inconclusive = small, poorly fitted or top-dose-only inhibition, or a rising curve; inactive = flat fitted curve, though single readings scatter; no compound was filed as active;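 note: 0% = full activity with enzyme and -100% = basal without enzyme; dose as in the result columns while the protocol names 77 µM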
Rango release inh: inhibitors of RanGTP-induced Rango-importin beta complex dissociation | Biochemical FRET Rango-importin beta, RanGTP-induced dissociation | O95149+P62826 | 340,000 compounds, 0.071% hits | AID 540253 | Potency, µM (top dose mostly 46.1 µM), for inactives: at the highest dose activity change, negative = inhibition; active means falling FRET ratio curve, often poorly fitted, with flat reads before Ran was added; inconclusive means other falling curves, or compound fluorescence or quenching; inactive means flat or rising ratio curve;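 note: potency is the fitted concentration of half-maximal effect; % of control where 0% means no effect; nearly all actives have a fitted effect of over 45% in size; -100% = wells without RanGTP and RCC1; the record marks most hits as doubtful in a second field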
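Quantitative HTS using a FRET biosensor: 0.1 uM Rango, 0.25 uM importin beta, 0.6 uM Ran, 2 mM GTP, 0.2 uM RCC1 final, PBS with DTT, Tween-20 and BSA. Post-read taken 45 min after Ran addition.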
miR-21 FLuc: miR-21 reporter, rising signal | HeLa miR-21 FLuc reporter, luciferase, 48 h | Potency, µM (titrated, usually from 38.3 µM), without a hit: at the top dose reporter change, positive = more light | 340,000 tested, under 10 active; active = well fitted rising curve with a large enough effect; inconclusive = small, poorly fitted or top-dose-only effect; inactive = no such curve, though single readings can be large or run the other way;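 note: % of control where 0% means no effect; miR-21 action dims this reporter so a rising signal means less miR-21 action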
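Compounds were titrated across several concentrations (up to approximately 40 uM) and incubated 48 hours with HeLa miR-21-FLuc reporter cells (miR-21 target sequence downstream of FLuc, endogenous miR-21). Readout was firefly luciferase luminescence after lytic detection reagent.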
An asterisk follows results filed as active; ? = inconclusive; · = no result given; & = joins results of further samples; [ ] = another dose, or the depositor's remark.

Each structure is followed by: Rango-impB inh | GLA inh pH 4.5 | miR-21 FLuc | Rango release inh
> Cc1ccc(S(=O)(=O)CCC(=O)OCc2nnc(-c3ccccc3)o2)cc1
    1.0% | · | · | 1.8%
> CCN(CC)C(=O)COc1ccc(/C(C)=N/Nc2ncc(Cl)cc2Cl)cc1
    1.9% | -6.7 | -45.0% | 0.1%
> CSc1ccccc1OCc1cc(C(=O)NCCC2CCCCO2)no1 (configuration not stated)
    -3.2% | · | -32.6% | -2.6%
> CC(=O)c1c(N2CCN(C)CC2)nc(=S)n(-c2cc(C)ccc2C)c1C
    -5.6% | -2.5 | -2.2% | 16.9%
> CN(C(=O)c1cccc(NC(=O)Cc2ccc(NC(=O)C3CCCN(C(=O)C4CC4)C3)cc2)c1)C1CCC1 (configuration not stated)
    4.5% | · | · | 18.6%
> Oc1ccccc1N1CCN(c2ncnc3sc(-c4ccccc4)cc23)CC1
    -0.1% | ? | 11.3% | 0.3%
> O=C(O)c1cccc2c1C(=O)c1ccc(-c3ccc(F)cc3F)cc1S2(=O)=O
    0.3% | · | · | 1.9%
> Cc1c(NC(=O)COc2c(F)c(F)c(F)c(F)c2F)c(=O)n(-c2ccccc2)n1C
    0.7% | · | -0.1% | 1.0%
> Cc1cccc(NC(=O)Nc2cccnc2)c1C
    3.1% | · | -6.9% | 2.6%
> Cc1ccnn1-c1ccc(C(=O)NCc2ccccc2CN2CCOCC2)cc1
    -1.8% | · | · | 0.1%
> CC12CCC(C(=O)Nc3ccccc3)(C/C1=N\O)C2(C)C (configuration not stated)
    -0.2% | 3.9 | -8.9% | 2.3%
> O=[N+]([O-])c1ccc(NC2CCCC2)cc1
    -5.2% | -9.0 | -14.8% | -12.8%
> Cc1ccc(CN2CCN(Cc3nc(C(C)C)cs3)CC2CCO)cc1 (configuration not stated)
    -0.9% | 0.4 | 0.8% | 16.5%
> CC(C)(C)C1CCC(=O)N(CCSc2ccccc2)CC1 (configuration not stated)
    2.9% | · | -49.1% | 8.9%
> CCN1CC=C2C(C1)C(c1ccc(Cl)s1)C(C#N)=C(N)C2(C#N)C#N (configuration not stated)
    ? | 5.9 | -4.0% | ?
> Cc1cc(NC(=O)COC(=O)COc2ccc3c4c(c(=O)oc3c2)CCC4)no1
    -1.5% | 8.1 | -1.8% | -1.1%
> CC(C)(C)c1ccc(C(=S)N2CCN(c3ccccc3)CC2)cc1
    -4.7% | -22.2 | -4.5% | 1.8%
> NC(=O)C1CCN(CCS(=O)(=O)c2ccc(Cl)cc2)CC1
    -5.6% | -9.2 | 1.2% | 12.4%
> COc1ccc(C2CC(c3ccccc3)=NN2C(=O)CN2N=NC3C(=O)N(c4cccc(F)c4)C(=O)C32)cc1 (configuration not stated)
    ? | -0.8 | -21.6% | -15.2%
> CC(C)N(C)C(=O)CCc1nnc(CCc2c[nH]c3ccccc23)o1
    3.3% | 3.6 | -15.3% | -2.0%
> COc1ccc(C(=O)N2CCN=C2SC)cc1OC
    2.5% | -10.7 | -9.6% | -8.5%
> CC1C2C(C)N(C)C(=O)N(C)C2N(C)C(=O)N1C (configuration not stated)
    ? | -14.5 | -5.5% | ?
> NC(=O)CN1C(=O)NC2(CCCc3ccccc32)C1=O (configuration not stated)
    -12.1% | · | -2.0% | 1.7%
> CC1CN(S(=O)(=O)c2ccc(C(=O)N3c4ccccc4CC3C)cc2)CC(C)O1 (configuration not stated)
    -0.4% | · | · | -1.9%
> Cc1cc(C)n2nc(SCC(=O)N(C)C3CCCCC3)nc2n1
    2.9% | · | · | -8.0%
> O=C(/C=C/c1ccco1)Nc1cccc(S(=O)(=O)N2CCOCC2)c1
    -6.9% | 0.4 | -15.2% | 14.2%
> Nn1c(SCC(=O)Nc2ccc(OC(F)F)cc2)nnc1-c1ccco1
    0.3% | · | · | 4.1%
> CCOc1ccc(NC(=O)CCC(=O)NNC(=O)COc2ccc(C)cc2)cc1
    0.1% | 7.1 | -2.9% | -10.9%
> COc1ccc(C2(C(=O)Nc3ccccc3)CCOCC2)cc1
    -0.5% | -9.1 | -4.1% | 3.8%
> O=C(COc1ccc(Cl)cc1)N/N=C/CCc1ccccc1
    3.4% | 4.5 | 0.1% | 14.1%
> COc1cccc(-c2nc3ccccc3c(=O)o2)c1
    3.1% | -5.1 | -33.8% | 18.3%
> Cc1cc(Cl)ccc1OCC(=O)NNC(=O)C1CCCO1 (configuration not stated)
    1.3% | -5.1 | -14.7% | 2.2%
> CC(C)(C)c1nnc(NS(=O)(=O)c2ccc(F)cc2)s1
    -2.6% | · | · | 11.5%
> COCCCNC(=O)c1cccc(NC(=O)c2ccccc2)c1
    -4.5% | -3.7 | -13.7% | 1.8%
> O=C(N/N=C/c1ccoc1)c1cccc(OC(F)(F)C(F)F)c1
    1.2% | · | · | 2.8%
> COc1ccc(CN(C)C2c3ccccc3-c3ccccc32)cc1
    0.9% | -3.2 | -1.2% | -10.6%
> Cc1cccc(-c2noc(-c3ccoc3C)n2)c1
    0.3% | 0.9 | -43.9% | 25.4%
> COc1ccccc1-c1ccc(/C=C2\C=CC(=O)O2)o1
    ? | -24.4 | -0.2% | ?
> O=C(c1ccco1)N1CCN(c2ccc([N+](=O)[O-])cc2Cl)CC1
    0.6% | -0.6 | -33.1% | -16.7%
> O=C(Nc1cccc(Br)c1)c1cc(S(=O)(=O)N2CCOCC2)cs1
    0.2% | · | -1.4% | -17.2%
> OCCC1CN(Cc2ccc3c(c2)CCO3)CCN1C1CCCC1 (configuration not stated)
    0.0% | 4.0 | -3.4% | 15.9%
> Cc1onc(C(=O)Nc2cccnc2Cl)c1[N+](=O)[O-]
    -1.8% | -4.7[21.1 µM] | -3.9% | 3.5%
> Cc1c[nH]c2cccc(OCC(CNC(C)(C)C)OC(=O)c3ccccc3)c12 (configuration not stated)
    2.3% | · | -8.6% | 5.5%
> O=C(CCCNC(=O)c1ccc(Cl)cc1)Nc1ncccc1O
    -6.5% | · | -5.7% | -6.3%
> CCCOC1CCCN(C(=O)c2cc(COc3cncc(Cl)c3)on2)C1 (configuration not stated)
    -3.4% | · | -22.3% | 5.7%
> CCC(C)Nc1nc(N)c([N+](=O)[O-])c(NCCO)n1 (configuration not stated)
    4.1% | -4.5 | -22.5% | 6.5%
> CCOC(=O)c1sc2ncn(/N=C/c3ccc(O)c(OC)c3)c(=O)c2c1C
    2.1% | -10.3 | 0.3% | 10.9%
> COc1ccc(C2=NN(C(C)=O)CC2c2cccc([N+](=O)[O-])c2)cc1 (configuration not stated)
    3.4% | · | -13.6% | 1.0%
> COc1cc2c(c3ccccc13)CCCC2=O
    -1.6% | · | · | -9.8%
> O=C(/C=C/c1ccc(Cl)cc1)Nc1ccc(N2CCOCC2)cc1
    -0.6% | 4.0 | -15.0% | -15.7%
> CC(=O)c1ccc(Nc2nc(NCCO)nc(OC(C(F)(F)F)C(F)(F)F)n2)cc1
    1.6% | -0.4 | 22.5% | -6.5%
> COc1ccc(NC(=O)Nc2ccc3c(c2)CCC3)cc1OC
    2.1% | -0.7 | -18.7% | 30.5%
> CCOc1ccc2nc(SCC(=O)NC3CCCc4ccccc43)sc2c1 (configuration not stated)
    1.6% | -0.6 | -8.4% | 12.0%
> O=C(NC1CCCCCC1)C1CC(=O)N(Cc2ccccc2)C1 (configuration not stated)
    7.2% | -6.4 | -9.9% | -11.6%
> O=C1CN(C(=O)COc2c(F)c(F)cc(F)c2F)c2ccccc2N1
    -0.2% | · | -5.9% | -18.0%
> CCC(=O)Nc1c2c(nc3c1CCC3)CCCC2
    4.5% | 8.0 | -0.5% | 0.8%
> Cn1c(SCc2ccccc2Br)nc2ccccc2c1=O
    -0.5% | · | -2.3% | 4.7%
> CCN(CC)C(=O)C1CCN(Cc2ccc(OCc3ccccc3)c(OC)c2)CC1
    0.6% | · | -11.8% | -14.2%
> COc1ccc(N2CCn3c2nc2c3c(=O)n(CCCc3ccccc3)c(=O)n2C)cc1
    · | -2.2 | -7.2% | ·
> C=CCN(C(=O)CCC(=O)Nc1cc(C)on1)C(C(=O)NC(C)(C)C)c1ccc(OC)cc1 (configuration not stated)
    -2.1% | · | -1.4% | -4.0%

Additional structures.
Each structure is followed by: Rango-impB inh | GLA inh pH 4.5 | miR-21 FLuc | Rango release inh
> COC(=O)C1C2CCC(C2)C1C(=O)OCC(=O)c1ccccc1 (configuration not stated)
    -1.1% | -5.6 | -4.3% | -1.6%
> O=c1[nH]c2cc3c(cc2cc1C(c1nnnn1C1CCCC1)N1CCSCC1)OCCO3 (configuration not stated)
    3.8% | 7.2 | 3.9% | 0.2%
> CC(C)Oc1ccc(CNC(=O)CCCN2C(=O)C(c3ccccc3)Oc3cccnc32)cc1 (configuration not stated)
    -0.1% | · | -1.8% | 1.2%
> Cn1c(SCC(O)c2ccccc2)nnc1-c1ccc2ccccc2c1 (configuration not stated)
    -0.5% | 1.2 | -13.1% | 16.6%
> COc1ccccc1N(C(=O)NCc1ccccc1)C1=NCC(C)S1 (configuration not stated)
    0.3% | -6.8 | -12.1% | ?
> Cc1nn(-c2ccccc2)c(Cl)c1/C=N/O
    -1.1% | -2.8 | -41.6% | 6.9%
> COc1ccc(-n2c(Cc3cccn3C)nnc2SCC(=O)Nc2ccc(C)cc2C)cc1
    3.9% | -16.4 | -5.7% | 3.8%
> Cc1cccc(N2CCN(C(=O)C3CC(=O)N(C4CCCC4)C3)CC2)c1C (configuration not stated)
    0.0% | · | 1.0% | -10.6%
> Cc1csc(SCC(=O)Nc2oc(C)c3c(C)n[nH]c(=O)c23)n1
    -2.8% | · | · | -16.1%
> O=C(CCNS(=O)(=O)c1ccc(Cl)cc1)N1CCN(Cc2ccccc2)CC1
    -0.9% | 2.9 | 8.4% | -3.5%
> CN(CCc1ccccn1)C(=O)CCNC(=O)Cn1cnc2ccccc2c1=O
    1.7% | 7.2 | -0.4% | -26.3%
> Cc1ccnc(NCc2c(O)ccc3ccccc23)c1
    3.4% | · | 7.2% | -10.7%
> Cc1ccc(S(=O)(=O)N2CC3CCCC2C3)cc1 (configuration not stated)
    -3.2% | -24.8 | -1.2% | 6.7%
> CN(C)NC(=O)C(NC(=O)c1ccccc1)C12CC3CC(CC(C3)C1)C2 (configuration not stated)
    ? | -14.0 | -14.6% | 21.3%
> COC(=O)C1=C(C)NC(C)=C([N+](=O)[O-])C1c1ccccc1C(F)(F)F (configuration not stated)
    -7.9%&-1.6% | -3.5&3.1 | 2.3% | -12.3%&-11.3%
> CCn1nc(NC(=O)c2cccnc2)c2cc3ccccc3nc21
    ? | 0.7 | 2.7% | ?
> COc1ccc(S(=O)(=O)N2CCOCC2)cc1C(=O)NC1CCCCC1
    2.5% | · | -1.2% | 1.5%
> CCCc1cc(=O)oc2cc(OCC(=O)N(C)C)c(Cl)cc12
    -2.7% | 1.9 | -0.2% | 1.6%
> COc1ccccc1CNC(=O)C/C(C)=N/NC(=O)Cc1ccc(OC)c(OC)c1
    0.0% | 1.4 | -7.2% | 4.0%
> CN(C)S(=O)(=O)c1cccc(C(=O)OCC(=O)NCc2ccc3c(c2)OCO3)c1
    -1.7% | -1.2 | 2.9% | 0.9%
> COc1nc(OC)nc(N2CCC(C(=O)NCC3CCCCC3)CC2)n1
    4.3% | -3.1 | -3.3% | 10.7%
> Nc1c(N(CCC2=CCCCC2)C(=O)COc2ccc([N+](=O)[O-])cc2)c(=O)[nH]c(=O)n1Cc1ccccc1
    -3.3% | · | · | 1.7%
> CCN(Cc1ccccc1)S(=O)(=O)c1ccc(C(=O)N(CCCN(C)C)c2nc3cc4c(cc3s2)OCCO4)cc1
    4.2% | · | · | 5.8%
> CC1CCN(C(=O)CSc2nnc(-c3cc4ccccc4cc3O)n2Cc2ccco2)CC1
    -1.1% | -1.3 | 12.7% | -13.6%
> CN(C)C=NC(=O)c1cn(-c2ccc(F)cc2)c(=O)c2ccccc12
    -1.1% | -0.6 | 1.8% | -4.1%
> COc1cccc(C(=O)NNC(=O)c2cccnc2)c1
    -1.3% | · | -6.7% | 27.7%

Bioassay records (PubChem)

A portion of the library. The share of hits here may be higher or lower than overall.
